Ecoli rRNA inh: inhibits bacterial ribosomal RNA function over humanized ribosomes; E. coli WT GFP vs humanized-ribosome RFP mutants, fluorescence, 24 h; hits give low values; DMSO median 0, no signal -100; GFP signal change (wild-type ribosome), % (concentration not given with the values); actives 1.6% (n = 350,000); AID 720706;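 active = significant combined selectivity score with lowered wild-type GFP, culture density cut under 30%, mutant RFP and density less affected; inactive = any of these conditions unmet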; also: one replicate is shown; some compounds called inactive have numbers as strong as hits
LANA-H2B inh: blocks KSHV LANA binding to histone H2A/H2B; cell-free LANA-H2A/H2B peptide, fluorescence polarization; inhibition, % (test concentration not listed); actives 0.6% (n = 320,000); in the data active = inhibition mostly above about 10%, no sharp cut-off; inactive = mostly below about 6.7%;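 also: stock transfer was 7.5 nL into about 10 µL; 0% = median of vehicle wells and 100% = median of positive control wells; one replicate is shown; the record names a cut of 25% in any replicate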
Target sequence (Q9QR71 whole entry, looked up): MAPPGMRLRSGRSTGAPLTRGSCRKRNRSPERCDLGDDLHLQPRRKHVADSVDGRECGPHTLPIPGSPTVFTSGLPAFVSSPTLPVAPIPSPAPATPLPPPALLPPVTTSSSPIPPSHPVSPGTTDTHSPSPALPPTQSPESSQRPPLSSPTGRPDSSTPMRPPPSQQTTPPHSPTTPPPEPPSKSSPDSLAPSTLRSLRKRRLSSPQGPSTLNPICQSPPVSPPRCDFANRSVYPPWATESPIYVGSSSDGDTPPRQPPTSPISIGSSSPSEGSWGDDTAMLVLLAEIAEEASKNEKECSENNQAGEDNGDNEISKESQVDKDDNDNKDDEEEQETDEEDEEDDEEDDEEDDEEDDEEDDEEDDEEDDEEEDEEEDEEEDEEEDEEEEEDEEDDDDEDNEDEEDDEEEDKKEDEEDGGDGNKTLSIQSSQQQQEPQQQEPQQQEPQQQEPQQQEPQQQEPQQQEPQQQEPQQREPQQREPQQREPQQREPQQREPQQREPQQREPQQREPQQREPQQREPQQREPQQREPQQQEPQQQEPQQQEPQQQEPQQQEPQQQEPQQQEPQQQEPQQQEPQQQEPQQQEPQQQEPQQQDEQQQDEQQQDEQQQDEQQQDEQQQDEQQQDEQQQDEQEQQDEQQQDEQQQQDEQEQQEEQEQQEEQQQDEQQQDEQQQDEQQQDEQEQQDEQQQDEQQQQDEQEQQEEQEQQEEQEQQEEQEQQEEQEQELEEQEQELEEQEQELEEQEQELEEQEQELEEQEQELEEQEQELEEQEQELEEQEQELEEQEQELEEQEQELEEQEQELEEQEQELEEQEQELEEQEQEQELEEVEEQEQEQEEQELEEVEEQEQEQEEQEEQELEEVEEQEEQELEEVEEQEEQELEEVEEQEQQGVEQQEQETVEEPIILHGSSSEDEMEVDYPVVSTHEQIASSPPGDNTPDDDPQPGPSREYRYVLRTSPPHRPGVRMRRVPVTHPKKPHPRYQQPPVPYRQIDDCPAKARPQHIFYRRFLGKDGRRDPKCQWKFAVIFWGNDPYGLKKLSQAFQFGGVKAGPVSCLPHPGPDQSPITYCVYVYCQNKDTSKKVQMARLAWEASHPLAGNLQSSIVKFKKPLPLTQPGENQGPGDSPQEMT
Bfl-1 A1 inh: inhibitors of the anti-apoptotic protein A1, read as caspase activation; MEF A1-2A-BIM cells, Caspase-Glo 3/7 luminescence, 3 h; percent of clofoctol response, vehicle zero; caspase activation, % (no concentration beside the values); actives 0.066% (n = 330,000); AID 2462;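 active = over half of replicate activation scores above 10%, or exactly half above 10 with the replicate mean above 10; inconclusive = replicate mean below 10 yet half the replicates above 10; inactive = over half of replicates below 10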;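 also: wells of about 30 µL received 50 nL stock; many hits fall short of the cut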
B2AR ag: agonists of human beta-2 adrenergic receptor inducing internalization | P07550 | Am2.2-beta2AR cells, FAP receptor internalization, flow cytometry; reference of the scale not given here | response, % (test concentration not listed) | actives 0.43% (n = 340,000) | AID 504454;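 active = response above a set limit, near 3 SD of response in nonfluorescent compounds, cut at about 42% in these data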;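 also: stock transfer was 100 nL into about 11 µL; a reference agonist was the positive control; negative values mostly stem from fluorescent compounds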
ALR H2O2 inh: human ALR oxidase inhibition via reduced H2O2; purified ALR, DTT oxidation, H2O2 HRP-luminol luminescence; AID 485317; actives 3.8% (n = 290,000); P55789; inhibition, % (test concentration not listed);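 active = mean and each replicate at 75% or more; inconclusive = only one of the two met; inactive = neither met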;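 also: stock transfer was 7.5 nL into about 7.5 µL; 0% = neutral wells and 100% = wells with inactivated enzyme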
T cruzi inh: T. cruzi replication inhibition | T. cruzi beta-gal in NIH3T3, luminescence, 90 h | inhibition, % (no concentration beside the values) | actives 1.4% (n = 300,000) | AID 1885;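 active = mean inhibition across valid replicates above about 55%, limit read from the data; inconclusive = mean below that limit but half or more replicates reach it; inactive = mean below it, under half of replicates reach it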;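 also: signal also drops with host cell toxicity which is not excluded here; 0% = plate median of DMSO wells and 100% = zero luminescence signal; higher percent means less beta-gal luminescence so fewer parasites; stock transfer was 50 nL into about 50 µL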
Beta cell apopt: beta cell apoptosis inhibition. INS-1E cytokine-induced death, ATP luminescence, 48 h; percent of positive-control rescue, neutral wells zero. protection from apoptosis, % (concentration not given with the values). actives 0.8% (n = 300,000);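 active = all replicates at 75% or more, or half of them and the mean; inconclusive = half reach 75% but not the mean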;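 also: 0% = cytokine-treated negative control wells and 100% = positive control rescue; higher means more ATP so stronger rescue from cytokine killing; wells of about 40 µL received 100 nL stock; the first replicate is given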
Calb FLC: affects C. albicans growth with fluconazole; C. albicans CaCi-2 (fluconazole-resistant clinical isolate) + fluconazole, Alamar Blue growth, 48 h; growth inhibition, % (no concentration beside the values); actives 0.57% (n = 300,000);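 active = most replicates above 75%; inconclusive = exactly half above 75%; inactive = most below 75%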;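 also: all wells also contain fluconazole at 8 µg/ml as a sub-toxic cotreatment; 0% = median of DMSO wells and 100% = median of geldanamycin control wells; wells of about 8 µL received 7.5 nL stock; the first replicate is given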
Ecoli rRNA inh OD600: second read-out of Ecoli rRNA inh, no call of its own (marks repeat the call); OD600 change, %; measured here: OD600 growth;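 optical density of the mix in the first replicate; 0 = DMSO median and -100 = no signal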
Ecoli rRNA inh RFP: further read-out of Ecoli rRNA inh, marked with its call; RFP signal change, %; measured here: RFP humanized mutant strains;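 first replicate; 0 = DMSO median and -100 = no signal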
* hit, by the source's call; u = inconclusive; x = no result given. The list is partial, so the mix of outcomes need not match the whole.

SMILES	Ecoli rRNA inh	Ecoli rRNA inh OD600	Ecoli rRNA inh RFP	LANA-H2B inh	Bfl-1 A1 inh	B2AR ag	ALR H2O2 inh	T cruzi inh	Beta cell apopt	Calb FLC
CS(=O)(=O)c1cccc(S(=O)(=O)N2CCCCCC2)c1	4	6	3.6	-3.7	0.3	6	-7	-1	-5	-12
CCCC(C)NNC(=O)c1cc2ccccc2[nH]1 (centres undefined)	x	x	x	5.0	0.1	10	3	-18	-3	-20
O=C(c1ccco1)N1CCc2ccccc21	8	4	-5.6	-5.1	-9.5	-1	-2	3	-5	-22
C=CCSC1=NC(=O)/C(=C/c2cccs2)S1	x	x	x	4.6	-0.1	27	73	x	-5	x
Cc1cc(C)nc(NC(=O)c2cnc3sccn3c2=O)n1	-32	-37	-4.5	2.3	0.2	-6	-5	-6	-11	-13
CC(=O)Cn1cnc2c(cnn2-c2ccc(C)c(C)c2)c1=O	6	6	2.0	-4.6	0.0	7	8	-16	-3	13
Cc1ccc2c(c1)c(CC(=O)Nc1ccc(C)c(F)c1)c(C(=O)O)n2C	-24*	-13*	7.2*	-17	-0.5	4	7	2	-1	1
COc1cccc(C(=O)Cn2c(Br)nc3c2c(=O)n(C)c(=O)n3C)c1	x	x	x	-1.5	0.7	-10	4	-13	0	-1
CCC1CN(C(=O)NCc2ccccc2)c2cc(C)ccc2O1 (centres undefined)	-3	3	1.2	2.6	0.2	-4	-4	9	3	4
CCC1CCCCN1C(=O)CCCc1ccccc1 (centres undefined)	4	-6	-0.3	3.0	-0.5	4	-14	0	-5	5
O=C(COC(=O)CC1Sc2ccccc2NC1=O)NCc1ccccc1 (centres undefined)	-1	-11	0.5	0.8	-0.2	13	-2	-1	x	4
O=C(CC1SC(=O)N(Cc2ccccc2)C1=O)Nc1nccs1 (centres undefined)	8	11	9.0	-1.8	-1.0	-9	-10	5	-8	1
CCOC(=O)CN1C(=O)C(O)(CC(=O)c2ccc3c(c2)CCCC3)c2ccccc21 (centres undefined)	x	x	x	0.8	0.8	15	-8	7	-8	-123
CC(NC(=O)c1cc(-c2ccncc2)nc2ccc(Cl)cc12)C1CCCO1 (centres undefined)	-3	-7	-2.4	-0.6	0.2	4	-7	14	9	35
NC(=O)CC(NC(=O)c1cccc(Br)c1)c1ccc(NC2CCCCCCC2)c([N+](=O)[O-])c1 (centres undefined)	3	2	5.0	-0.5	1.7	-7	8	0	-1	-9
O=C(Nc1nc2c(Cl)cccc2s1)c1ccc([N+](=O)[O-])o1	-46	-76	-11	-1.1	-2.1	6	-12	36	x	-2
CCOC(=O)/C(C#N)=C/c1ccc(OCC(=O)Nc2ccc(C)c(C)c2)c(OC)c1	x	x	x	-3.3	0.9	7	0	-10	-14	-5
CCc1ccc(NC(=O)CCNS(=O)(=O)c2cccs2)cc1	4	-7	5.6	-1.2	0.5	-1	2	-14	-6	12
CCOC(=O)C1CCCN(S(=O)(=O)c2ccc(NC(C)=O)cc2)C1 (centres undefined)	-5	24	-0.9	-2.3	-0.1	2	-3	-9	1	7
C[C@H](NC(=O)c1[nH]cnc1C(=O)Nc1nccs1)c1ccccc1	10	7	-0.2	0.9	0.0	-7	-12	x	4	x
O=C(Nc1c2c(nc3ccccc13)CCCC2)c1ccccc1F	10	4	-9.6	-3.5	0.0	-15	-6	6	7	12
COc1ccccc1OCCC(=O)O	7	1	3.4	x	-1.9	-1	x	-9	-1	3
Cc1cc(F)ccc1NC(=O)C1CCCO1 (centres undefined)	11	-6	-7.3	0.9	0.1	-4	x	-8	-11	2
N#Cc1cc(NC2CCCC2)c([N+](=O)[O-])cc1C#N	-14	-10	-7.1	x	-0.6	-15	x	-4	2	47
CC1(C)Oc2ccc(C(=O)N/N=C/c3ccc(O)cc3)cc2NC1=O	-5	1	1.5	-5.2	-1.0	3	99*	-4	-2	0
COc1ccc(C(=O)COC(=O)c2cccnc2SC)cc1	19	20	1.6	3.2	-2.2	-11	1	-9	1	-13
COc1cc(/C=N/NC(=O)COc2ccc(-n3cnnn3)cc2)ccc1OCC(N)=O	1	8	-2.6	-2.1	0.6	0	-2	-18	-21	2
CCc1cc2c(=O)n(-c3ccccc3)c(SCC(N)=O)nc2s1	13	1	-0.5	6.0	0.0	-5	-1	-18	-5	8
CCOC(=O)CCCc1ccc(/C(C)=N/NC(=S)NC)cc1	-32	-30	0.1	-2.6	0.0	1	17	-27	-5	12
Cc1cccc(NS(=O)(=O)c2cccc(C(=O)NNC(=O)c3ccccc3O)c2)c1	-42	-68	-16	-12	-5.4	12	0	x	19	x
CCOC(=O)N1CCN(Cc2nc3c(c(=O)n(C)c(=O)n3C)n2Cc2cccc(C)c2)CC1	x	x	x	3.3	1.1	-7	9	-7	x	0
O=C(N/N=C1\CCCc2ccccc21)c1ccccc1Cl	3	2	-4.4	2.5	0.2	-1	-3	-11	-3	30
CCOC(=O)[C@@H]1[C@H]2COc3cc(OC)ccc3[C@H]2N2C(=O)N(c3ccc(Br)cc3)C(=O)[C@]12C	0	8	-2.2	1.5	-0.6	3	3	x	-2	x
CCn1c(SCC(=O)N2CCCCCC2)nc2c(c1=O)SCC2	4	-3	1.2	2.0	-0.5	-13	-1	33	0	-3
COc1cccc(/C=N/N2CCN(c3ccccc3OC)CC2)c1	x	x	x	8.6	0.0	-6	12	-11	-6	39
CN1C(=O)[C@H]2[C@@H](/C=C/c3ccccc3)N3C(=O)CN(Cc4ccccn4)C(=O)[C@@]3(Cc3ccccc3)[C@H]2C1=O	12	15	4.7	-1.5	0.0	4	5	x	-3	x
O=C1N[C@@H](Cc2ccccc2)C(=O)N2[C@@H]1C[C@@]1(Br)c3ccccc3N(S(=O)(=O)c3ccccc3)[C@@H]21	-15	-16	5.9	-1.2	0.0	0	-3	-3	-4	4
O=C(CCS(=O)(=O)c1ccccc1)N1CCN(c2ccc(F)cc2)CC1	2	5	1.4	-2.4	1.4	5	68	-20	0	8
COCc1cc(/C=N\NC(=O)Cc2ccc(Cl)cc2)ccc1OC	x	x	x	-3.5	0.4	3	0	1	0	-1
CN(C1CCCCC1)S(=O)(=O)c1ccc(-n2cnnn2)cc1	x	x	x	-2.2	0.2	-4	-1	-3	5	-30
C=CCOc1nc(N(C)C)nc(N(C)C)n1	x	x	x	-1.3	-0.5	-10	-3	-3	1	-2
FCCCOc1ccc(-c2ccnc(-c3ccccc3)n2)cc1	x	x	x	0.9	0.7	-6	17	17	0	3
C/C(=N\NC(=O)CN(c1ccccc1)S(C)(=O)=O)c1ccccc1O	-10	-6	-3.3	3.9	0.1	16	-25	9	-21	-10
COc1c(C(=O)NNC(=O)c2ccccc2Cl)csc1Br	-3	-1	-2.4	3.9	-3.0	-2	-7	3	-4	11
Cc1ccc(CN2CCN(Cc3ccc(O)cc3)CC2CCO)o1 (centres undefined)	-20	-27	-8.5	-0.3	0.0	-7	-5	-10	-2	-11

One compound at a time, as listed above. Screens in order: Ecoli rRNA inh	Ecoli rRNA inh OD600	Ecoli rRNA inh RFP	LANA-H2B inh	Bfl-1 A1 inh	B2AR ag	ALR H2O2 inh	T cruzi inh	Beta cell apopt	Calb FLC
Profile of C/C(=N\NC(=O)CN(c1ccccc1)S(C)(=O)=O)c1ccccc1O : -10	-6	-3.3	3.9	0.1	16	-25	9	-21	-10
Profile of COc1cc(/C=N/NC(=O)COc2ccc(-n3cnnn3)cc2)ccc1OCC(N)=O : 1	8	-2.6	-2.1	0.6	0	-2	-18	-21	2

The list goes on.
SMILES	Ecoli rRNA inh	Ecoli rRNA inh OD600	Ecoli rRNA inh RFP	LANA-H2B inh	Bfl-1 A1 inh	B2AR ag	ALR H2O2 inh	T cruzi inh	Beta cell apopt	Calb FLC
COC(=O)c1cc(S(=O)(=O)NCC2CCN(Cc3ccc(C)cc3)CC2)cn1C	8	12	-1.1	1.1	0.9	-7	-15	-3	-6	-14
O=C(CN1C(=O)CCSc2ccc(S(=O)(=O)N3CCOCC3)cc21)Nc1ccccc1Cl	1	-2	1.9	2.7	-0.1	9	-5	2	x	4
Cc1ccc(S(=O)(=O)/N=C(/Nc2ccc(O)c(C(=O)O)c2)c2ccccc2)cc1	2	4	-0.9	-0.6	0.3	-6	x	x	-3	x
C/C(=N\NC(=O)CC#N)c1ccc(Oc2ccccc2)cc1	3	10	-2.8	1.4	0.6	-21	0	5	3	7
CCCCN(C(=O)CNC(=O)c1ccco1)C(C(=O)NC1CCCCC1)c1ccc(OC)cc1OC (centres undefined)	x	x	x	1.5	1.6	-3	1	4	-5	5
Cc1ccc(C(=O)Nc2nc(-c3cc(Cl)sc3Cl)cs2)cc1	x	x	x	-0.7	0.0	7	-1	16	5	-14
Cc1oc(-c2ccc(Cl)cc2)cc1C(=O)NC1CCN(Cc2ccccc2)CC1	5	6	13	-1.0	2.3	-1	2	43	x	-6
CC(C)N(Cc1ccccc1)S(=O)(=O)c1cccs1	-27	-23	-3.5	-4.6	0.7	-4	x	6	x	-8
Cc1ccc(C(=O)O/N=C/c2ccc(N(C)C)cc2)cc1	11	12	-5.8	-2.7	-1.4	-1	-4	-12	3	28
CSc1cc(-c2ccncc2)nc(-c2ccc(Cl)cc2)c1	9	16	2.4	-1.8	0.0	-16	10	46	0	3
COc1cc(NC(=O)C2CCN(S(=O)(=O)c3ccc(N4CCCC4=O)cc3)CC2)cc(OC)c1	-4	-12	3.7	-2.6	2.5	-8	-18	11	0	31
O=C(c1cc(F)c(F)cc1Cl)N1CCN(CCc2ccccc2)CC1	2	-1	2.8	0.1	0.3	-10	-4	0	-1	0
O=C(CN1CCCC1)Nc1ccc(Oc2ccc(NC(=O)CN3CCCC3)cc2)cc1	x	x	x	-2.9	-0.1	14	x	39	-1	0
Cc1nc2ccc(Br)cc2c2c1CC(CBr)O2 (centres undefined)	-56	-80	-24	-7.2	0.2	-6	x	5	-12	-1
O=C1CC[C@H](N2C(=O)c3ccccc3C2=O)C(=O)N1	x	x	x	4.0	-0.1	-2	x	-10	-8	x
C/C=C(\C)C(=O)NCCN1C2=NC[C@@H](Cc3ccccc3)N2C[C@H]1Cc1ccc(O)cc1	4	5	3.5	0.4	1.9	-9	-17	-16	-1	-2
O=C(c1cc2ccccc2o1)N1CC=C(c2ccccc2)CC1	4	0	1.2	3.2	0.4	-4	3	-9	x	-7
COc1ccc(-c2cc3n(n2)CCc2nc4ccccc4n2-3)cc1	x	x	x	-3.5	1.3	-7	-2	7	-4	-1
S=C(NCCc1ccc(Cl)cc1)NCc1ccco1	-10	-9	-2.6	1.0	u	-6	2	-9	-10	-2
CCOCCCNC(C(=O)Nc1ccc(OC)c(Cl)c1)c1ccccc1 (centres undefined)	-18	-21	-3.7	-0.6	1.2	24	3	5	-7	-3
CN(/N=C/c1cc(Cl)ccc1O)C1=NS(=O)(=O)c2ccccc21	-21*	4.8*	-1.3*	0.7	0.6	2	x	-7	0	9
CCOC(=O)C(CC)(CC)/C(C)=N/NC(=O)CC#N	x	x	x	3.0	-0.9	4	2	-4	-2	1

Screening data: PubChem BioAssay, several laboratories
